ALR H2O2 inh: blocks human ALR sulfhydryl oxidase activity; P55789; purified ALR, DTT oxidation, H2O2 HRP-luminol luminescence; inhibition, % (no concentration beside the values); 290,000 compounds, 3.8% hits; AID 485317;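 active means mean and each replicate at 75% or more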;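 further: stock transfer was 7.5 nL into about 7.5 µL; 0% = neutral wells and 100% = wells with inactivated enzyme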
Target sequence (P55789 whole entry, looked up): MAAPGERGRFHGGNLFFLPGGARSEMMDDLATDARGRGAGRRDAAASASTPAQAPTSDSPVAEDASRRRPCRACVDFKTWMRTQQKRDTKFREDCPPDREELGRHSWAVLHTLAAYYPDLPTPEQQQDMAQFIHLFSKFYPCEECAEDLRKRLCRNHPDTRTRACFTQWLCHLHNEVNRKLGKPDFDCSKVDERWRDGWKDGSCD
Ecoli growth: inhibitors of Escherichia coli growth. OD600 absorbance (no concentration beside the values). 330,000 compounds, 0.21% hits. OD600, 23 h; hits give low values;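 active means OD600 absorbance below the run mean of sample wells minus 3.6 SD, in any replicate, cut at about 0.56 in these data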;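 further: stock transfer was 300 nL into about 60 µL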
FGF22 binding: FGF22 (human) thermal shift binding | 340,000 compounds, 1.5% hits | AID 651658 | calls only at 9.99 µM | Q9HCT0 | recombinant FGF22 thermal shift, SYPRO orange fluorescence; percent of sucrose octasulfate shift, DMSO zero;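 active means melting point raised past a set limit in the mean and every replicate; three in four hits are not shown here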
rRNA inh HTS: inhibits bacterial ribosomal RNA function over humanized ribosomes; E. coli WT GFP vs humanized-ribosome RFP mutants, fluorescence, 24 h; hits give low values; DMSO median 0, no signal -100; GFP signal change (wild-type ribosome), % (no concentration beside the values); 350,000 compounds, 1.6% hits; AID 720706;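 active means significant combined selectivity score with lowered wild-type GFP, culture density cut under 30%, mutant RFP and density less affected; inactive means any of these conditions unmet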; further: one replicate is shown; some compounds called inactive have numbers as strong as hits
UCH37 inh: inhibitors of human deubiquitinating enzyme UCH37; Q9Y5K5; purified proteasome/UCH37, Ub-AMC cleavage fluorescence; inhibition, % (test concentration not listed); 330,000 compounds, 0.33% hits; AID 588478;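 active means mean of two replicates above 20%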;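 further: 0% = compound-free wells with enzyme and 100% = wells lacking proteasome; stock transfer was 100 nL into about 20 µL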
Target sequence (Q9Y5K5 whole entry, looked up): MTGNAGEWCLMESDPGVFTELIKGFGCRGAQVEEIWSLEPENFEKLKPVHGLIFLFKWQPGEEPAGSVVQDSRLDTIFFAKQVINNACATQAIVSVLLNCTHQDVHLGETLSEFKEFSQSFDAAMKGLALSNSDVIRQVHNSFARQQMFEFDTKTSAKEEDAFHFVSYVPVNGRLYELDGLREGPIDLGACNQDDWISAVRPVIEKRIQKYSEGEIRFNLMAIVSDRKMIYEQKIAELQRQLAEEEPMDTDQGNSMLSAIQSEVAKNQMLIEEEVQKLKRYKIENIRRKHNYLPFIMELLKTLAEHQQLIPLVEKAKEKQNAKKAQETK
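Reagent: Ub-AMC substrate; assay system: Proteasome-associated human UCH37 deubiquitinase; controls: no-proteasome and no-compound wells; read-out: % inhibition of Ub-AMC cleavage fluorescence; timing: 30 min preincubation with enzyme, 25 min cleavage at room temperature; signal: AMC fluorescence from Ub-AMC cleavage, excitation 355 nm, emission 460 nm; buffer or medium: Tris-HCl pH 7.4 plus ovalbumin, ATP-MgCl2, DTT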
B2AR ag: human beta-2 adrenergic receptor agonism by FAP | Am2.2-beta2AR cells, FAP receptor internalization, flow cytometry; reference of the scale not given here | 340,000 compounds, 0.43% hits | P07550 | response, % (test concentration not listed);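 active means response above a set limit, near 3 SD of response in nonfluorescent compounds, cut at about 42% in these data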;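 further: stock transfer was 100 nL into about 11 µL; a reference agonist was the positive control; negative values mostly stem from fluorescent compounds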
Target sequence (P07550 whole entry, looked up): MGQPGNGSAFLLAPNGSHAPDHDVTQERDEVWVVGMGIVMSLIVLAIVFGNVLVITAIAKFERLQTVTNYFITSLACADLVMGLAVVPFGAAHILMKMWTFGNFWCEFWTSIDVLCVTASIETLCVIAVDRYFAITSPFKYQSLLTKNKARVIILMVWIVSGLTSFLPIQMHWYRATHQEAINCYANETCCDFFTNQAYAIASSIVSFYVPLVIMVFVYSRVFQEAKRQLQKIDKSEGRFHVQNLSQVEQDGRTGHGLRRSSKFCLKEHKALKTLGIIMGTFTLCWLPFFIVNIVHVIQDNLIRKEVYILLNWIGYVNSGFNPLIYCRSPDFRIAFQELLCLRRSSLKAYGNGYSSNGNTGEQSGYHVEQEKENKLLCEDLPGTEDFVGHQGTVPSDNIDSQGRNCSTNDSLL
HNF4A DNA FP: change in binding of human HNF4 alpha to DNA; P41235; HNF4a-FITC DNA binding, fluorescence polarization, 1 h; activity change, % at 10 µM; 360,000 compounds, 0.3% hits; AID 1224865; in the data active means activity change above about 30%, passing the limit was not always enough;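 further: controls were the assay level and a saturating level of protein; the project sought stronger binding though the title names inhibitors; some compounds called inactive have numbers as strong as hits; positive values seem to mean higher polarization but the record does not say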
rRNA inh HTS OD600: second read-out of rRNA inh HTS, no call of its own (marks repeat the call); OD600 change, %; measured here: OD600 growth;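 optical density of the mix in the first replicate; 0 = DMSO median and -100 = no signal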
rRNA inh HTS RFP: second read-out of rRNA inh HTS, no call of its own (marks repeat the call); RFP signal change, %; measured here: RFP humanized mutant strains;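 first replicate; 0 = DMSO median and -100 = no signal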
The depositor's hits bear a star; i = inactive; . = not tested or not shown; & = joins results of further samples. An excerpt (hit frequency here may not be typical).

Preview (three entries):
SMILES	ALR H2O2 inh	Ecoli growth	FGF22 binding	rRNA inh HTS	rRNA inh HTS OD600	rRNA inh HTS RFP	UCH37 inh	B2AR ag	HNF4A DNA FP
CCN(CC)c1ccc(C=O)c(OC)c1	-1	0.65	.	1	-6	-0.6	18	12	2.7
Cc1nn(CC(=O)c2ccc(Br)s2)c(C)c1[N+](=O)[O-]	7	0.63	i	-21*	1.1*	2.1*	1.8	24	18
O=c1oc(-c2cccc(C(F)(F)F)c2)nn1-c1ccc(C(F)(F)F)cn1	-30	0.69	i	2	2	-0.9	6.3	-7	-0.7

The whole of this part, from the first entry:
SMILES	ALR H2O2 inh	Ecoli growth	FGF22 binding	rRNA inh HTS	rRNA inh HTS OD600	rRNA inh HTS RFP	UCH37 inh	B2AR ag	HNF4A DNA FP
CCN(CC)c1ccc(C=O)c(OC)c1	-1	0.65	.	1	-6	-0.6	18	12	2.7
Cc1nn(CC(=O)c2ccc(Br)s2)c(C)c1[N+](=O)[O-]	7	0.63	i	-21*	1.1*	2.1*	1.8	24	18
O=c1oc(-c2cccc(C(F)(F)F)c2)nn1-c1ccc(C(F)(F)F)cn1	-30	0.69	i	2	2	-0.9	6.3	-7	-0.7
CCCCn1c(/C=N/Nc2nc3ccccc3[nH]2)nc2ccccc21	3	.	.	.	.	.	.	-4	2.3
O=C(NNC(=O)C1CC(c2cccs2)=NO1)Nc1ccc(Cl)cc1 (stereo unspecified)	-4	0.74	i	11	4	-1.0	4.1	-2	-0.8
CN(C(=O)c1cc2c(cc1Br)OCO2)c1cccc2ccccc12	.	.	i	-54	-74	-15	.	.	-0.7
CCc1cc2c(COC(=O)CCNS(=O)(=O)c3cccc(C(F)(F)F)c3)cc(=O)oc2cc1O	-2	0.69	i	-53	-76	-16	-230	4	-1.6
CCn1cc(Br)c(C(=O)Nc2cccc(SC)c2)n1	99*	0.68	.	.	.	.	-0.3	0	-3.2
COCCN(C(=S)Nc1cccc(Cl)c1C)C(C)c1ccco1 (stereo unspecified)	-22	0.64	i	-14	-10	-6.6	1.1	21	1.5
CC(=O)C[C@@H]1OC[C@H](C(C)C)N1S(=O)(=O)c1ccc(C)cc1	.	.	i	-5	2	-5.4	.	.	-2.8
CC(C)(C)c1cc(CCC(=O)NCCc2ccccn2)cc(C(C)(C)C)c1O	41	0.69	i	-7	-9	1.3	2.9	7	-1.4
Cc1ccc(NC(=O)CN(C)CC(=O)NC2CCCc3ccccc32)cc1 (stereo unspecified)	-27	0.69	i	-7	-10	5.2	5.4	-1	-1.8
O=c1cc(CN2CCCc3ccccc32)nc2sccn12	-18	0.66	i	7	-2	1.4	-6.0	-2	-51
CC(C)CNC(=O)C(=O)NCC(c1ccc2c(c1)OCO2)N1CCOCC1 (stereo unspecified)	-3	0.63	i	5	10	0.0	-0.8	4	1.0
COc1ccc(-c2cn3ccsc3n2)cc1	25	0.66	.	.	.	.	0.8	-2	-0.2
CCOC(=O)C1(Cc2cccc(Cl)c2)CCCN(C(=O)c2ccco2)C1 (stereo unspecified)	-3	0.67	i	-4	-6	-4.3	0.8	3	0.5
CCOC(=O)N1CCC(NCCNC(=O)c2ccccc2)CC1	-2	0.7&0.69	i	5	4	0.6	3.4&0.1	6&8	0.9&-2.2
CC(C)(C)c1ccc(OCC(O)CN2CCc3ccccc3C2)cc1 (stereo unspecified)	0	0.62	i	-52	-48	-14	7.0	10	4.2
CC(C)(C)c1ccc(CNc2ccc([N+](=O)[O-])cn2)cc1	5	0.68	.	.	.	.	-1.8	9	0.3
CC(=O)Nc1cccc(NC(=O)CSc2nnc3ccc(-c4ccncc4)nn23)c1	2	0.64	i	4	13	0.6	1.3	5	-2.5
COc1ccc(CN(C(=O)c2oc3ccc(F)cc3c2C)C2CCS(=O)(=O)C2)cc1 (stereo unspecified)	9	0.73	i	-3	-18	1.8	3.7	-13	-4.0
COC(=O)c1ccc(NC(=O)C2CCN(C(=O)Nc3ccccc3)CC2)cc1	-1	0.65	i	-13	-10	-5.1	3.3	-10	-2.6
COc1ccccc1CNC(=O)CCCc1ccccc1	-1	0.7	i	.	.	.	2.3	5	-2.5
CC(C)C[C@H]1CNC(=S)N1C[C@H]1CCCN1C[C@H](CC(C)C)N1C[C@H](Cc2ccc(O)cc2)N(CC2CCCCC2)C1=S	.	.	i	18	4	5.4	.	.	-3.3
Cc1cccc(CN2CCN([C@H]3CS(=O)(=O)N[C@@H]3COCc3ccccc3)CC2)c1	.	.	i	-5	-2	3.0	.	.	7.0
Cc1ccccc1N(C(=O)Cn1nnc(-c2ccc(F)cc2)n1)C(C(=O)NC(C)(C)C)c1ccncc1 (stereo unspecified)	12	0.69	.	8	15	5.9	-0.2	-7	-1.1
Cc1ccc(N(C)C(=O)C2CCCN2S(=O)(=O)c2ccc3c(c2)n(C)c(=O)c(=O)n3C)cc1 (stereo unspecified)	-6	0.71	i	14	-8	1.2	-2.5	-14	-6.4
COc1ccccc1CC(=O)NCc1nn(-c2ccccc2)nc1C	.	0.69	i	-3	4	-1.1	4.4	-3	-1.4
COc1cccc(CN2CC(O)=C(c3nc(-c4ccc(Cl)cc4)cs3)C2=N)c1	-6	0.76	.	6	6	-1.8	1.0	0	-0.4
O=C(CN1CCN(S(=O)(=O)c2ccc(Br)cc2)CC1)Nc1ccc2c(c1)OCCO2	.	0.74	.	.	.	.	1.4	0	3.0
CCOc1ccccc1/C=C/c1cc(C(=O)O)c2ccccc2n1	-1	0.7	i	-23*	-8.1*	8.7*	-154	4	3.4
C/C(=N\NS(=O)(=O)c1ccc([N+](=O)[O-])cc1)c1c[nH]c2ccccc12	55	.	i	13	12	0.3	.	3	-1.2
Cc1ccc(NC(=S)c2nc3ccccc3s2)cc1	.	0.79	.	.	.	.	4.4	-9	-0.5
CCC1=NC(c2ccc(OC)cc2)N(O)C1(C)C (stereo unspecified)	6	0.76	.	.	.	.	2.4	-3	3.4
CCOc1cc2[nH]c(=S)n(C(C)C)c(=O)c2cc1OCC	29	0.69	.	.	.	.	4.7	6	4.3
CCOc1ccc(C(=O)CSc2nnc(N)s2)cc1	-3	0.71	.	.	.	.	2.2	4	5.0
c1ccc(Cn2c(-c3cncs3)nc3ccccc32)cc1	1	0.61	.	.	.	.	0.1	-7	-1.4
O=C(NCC1CCCN(Cc2cccc(C(F)(F)F)c2)C1)c1ccc(F)cc1 (stereo unspecified)	-3	0.67	i	-1	-8	-1.8	2.0	-1	3.5
Cc1ccc(OCCCC(=O)Nc2ccc(S(=O)(=O)Nc3cc(C)on3)cc2)cc1	1	0.71	.	.	.	.	3.8	4	1.0
OCC[C@@H]1C[C@H](O)[C@@H](O)[C@@]2(OCc3ccccc32)O1	-2	.	i	3	2	-0.7	0.6	-2	0.2
O=C(NCc1cccc2ccccc12)c1cccs1	5	0.65	i	-8	-24	-9.5	4.6	-14	9.5
O=C(O)C1C2CCC(C2)C1C(=O)Nc1nc2ccccc2s1 (stereo unspecified)	0	0.71	.	.	.	.	1.6	-10	4.0
COc1ccc(/C=C2\SC(=NCc3ccccc3)N(Cc3ccccc3)C2=O)cc1OC	8	0.77	.	.	.	.	-2.4	5	6.2
CC(=O)Oc1ccc(-c2ccc(C(=O)O)cc2)cc1	48	0.74	.	.	.	.	2.7	-2	-2.3
CCCCc1nc2cc(C(=O)N(C)CCc3cn[nH]c3)ccc2o1	0	0.71	i	7	12	-3.2	6.4	5	-1.2
CCN(CC(=O)NCc1ccc(F)cc1)c1ccc(S(C)(=O)=O)cc1[N+](=O)[O-]	-2	0.64	i	8	4	-1.0	-1.6	3	7.2
CCCCCCCC(=O)N/N=C(\C)c1ccc(O)cc1O	.	.	i	-17	-17	-3.8	.	23	1.7
COc1ccc(OC)c(NC2=NC3(CCCC3)N=C(N)N2)c1	-11	0.66	.	.	.	.	4.6	6	0.3
COC(=O)[C@]12CCCCC=C1N(Cc1cccc3ccccc13)C(=O)[C@H](CC(=O)NCc1ccccc1)C2	.	.	i	-2	10	1.8	.	.	-3.2
O=C(c1cccc(F)c1)N1CCC(O)(c2cccnc2)CC1	2	0.71	.	.	.	.	3.8	1	-2.4
CCOC(=O)c1c(-c2ccccc2)csc1NC(=O)/C(C#N)=C/c1ccc(OC)c(OC)c1	.	0.73	.	.	.	.	-8.8	1	19
c1ccc(CN2CCN(CCOCCOc3ccc4c(c3)CCC4)CC2)cc1	-14	0.69	i	-7	-7	-5.0	0.7	5	-2.5
CC(=O)N1c2ccc(S(=O)(=O)N3CCCCC3)cc2CC1C (stereo unspecified)	5	.	i	3	3	-1.4	.	-1	-5.6
COc1ccc(/C=C2/SC(=O)N(CCC(=O)Nc3ccccc3)C2=O)cc1OC	.	0.64	i	1	7	-2.8	4.9	4	-0.9
Nc1nnc(SCC(=O)NC2CCCC2)s1	-10	0.72	i	20	30	10	0.7	9	-0.8
Cc1ccccc1-c1nc(C#N)c(N2CCCCC2)o1	-9	0.67	i	-24	-24	-5.8	-73	8	1.5
Cc1ccc(C2(c3ccc(C)cc3)CC2C(=O)NCc2cccnc2)cc1 (stereo unspecified)	-28	0.71	i	0	-2	-0.4	1.6	-1	0.7
CC1CC(NC(=S)N(C)C)CC(C)(C)C1 (stereo unspecified)	.	.	i	-4	0	-3.3	.	.	0.4
Cc1ccc(S(=O)(=O)N2CN(Cc3ccco3)c3nc4ccccc4nc32)cc1	14	0.74	.	.	.	.	-7.8	-12	1.6
COCCN(Cc1nc2ccccc2c(=O)[nH]1)C(=O)COc1c(C)cc(Cl)cc1C	1	0.71	i	4	6	-0.4	-2.2	-8	1.2

Next structures follow:
SMILES	ALR H2O2 inh	Ecoli growth	FGF22 binding	rRNA inh HTS	rRNA inh HTS OD600	rRNA inh HTS RFP	UCH37 inh	B2AR ag	HNF4A DNA FP
CC(C)OC(=O)c1ccccc1C(=O)c1ccc(N)c([N+](=O)[O-])c1	-6	0.66	i	-22	-29	-1.5	5.2	-2	1.6
COc1ccc(C(=O)COc2ccc(NC(C)=O)cc2)cc1	-10	0.72	.	3	11	5.1	-2.4	8	3.8
COCCNC(=O)/C(C#N)=C1\N=C(NC(=O)c2cccs2)c2ccccc21	2	0.7	i	6	8	0.0	-5.4	-54	-0.3
N#CCCn1cc(C(=O)N2CCCCC2)c(-c2cccc([N+](=O)[O-])c2)n1	.	0.72	i	12	9	-0.9	5.5	-3	-5.5
O=[N+]([O-])c1ccc(-c2nc(-c3ccncc3)no2)cc1	-35	0.65	i	11	11	0.8	2.7	3	-1.7
COc1ccc(Nc2cc(C(=O)NCCCN3CCN(C)CC3)c3ccccc3n2)cc1OC	65	0.72	.	.	.	.	4.4	0	-5.7
Cc1ccc(CNC(=O)C(c2ccccc2)c2ccccc2)cc1	.	0.68	i	1	9	-3.1	1.7	2	1.9
NC1=NC(=O)C(Cc2ccc(Br)cc2)S1 (stereo unspecified)	-3	0.7	i	1	7	0.4	5.1	-2	-3.0
Cc1cccc(NC(=S)NN2CCOCC2)c1C	3	0.7	.	.	.	.	-0.7	10	1.2
Cc1ccc(S(=O)(=O)N/N=C\c2ccc(Cl)c([N+](=O)[O-])c2)cc1	3	.	i	-17	-12	-1.5	.	-6	-2.7

From PubChem BioAssay
